Compound activity (PubChem)
PD-1 reversal: reversal of PD-1 mediated T-cell inhibition. primary human CD4 T cells, PD-L1 beads, CellTiter-Glo 96 h. activation, % (no concentration beside the values). 29,000 tested, under 10 active. AID 2316;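 active = replicate mean of 50% or more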;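 note: 0% = median vehicle wells and 100% = positive control; 100 nL library stock added to about 50 µL; numbers are from one replicate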
Shh pathway inh: Sonic Hedgehog pathway inhibition; hit rate 2.1% among 22,000; Shh-LIGHT2 Gli-luciferase reporter, 30 h; inhibition, % (no concentration beside the values);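 active = replicate mean of 65% or more; inconclusive = mean lower but half the replicates past it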;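 note: pathway switched on by Shh-conditioned medium diluted 1 in 25 in low serum; 100 nL library stock added to about 40 µL; 0% = median of neutral wells and 100% = positive control level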
MITF inhib: inhibitors of MITF. TRPM1 promoter luciferase, luminescence, 24 h. inhibition, % (no concentration beside the values). hit rate 0.28% among 37,000;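 active = most replicates at 85% or more, or half of them and the mean; inconclusive = half reach 85% but not the mean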;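 note: human melanocyte line stably carrying TRPM1 promoter luciferase reporter; 0% = vehicle wells and 100% = a positive control; the first replicate is given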
YB-1 expression: YB-1 expression inhibition. U2OS, qRT-PCR YB-1 vs CDIP delta delta Cp, 16 h; stronger effect = higher value; zero = DMSO, each unit about twofold. delta delta Cp (YB-1 minus CDIP) (concentration not given with the values). hit rate 0.37% among 30,000. AID 434959;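 active = delta delta Cp rounded down to an integer at or above 3, about 3 SD of DMSO wells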;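 note: higher means less YB-1 transcript or more CDIP transcript relative to DMSO; stock transfer was 100 nL into about 100 µL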
An asterisk follows results filed as active; ? = inconclusive; . = not tested or not shown. These rows are one share of the data; the hit share may differ from the screen's.

SMILES	PD-1 reversal	Shh pathway inh	MITF inhib	YB-1 expression
C[C@H](CO)N1C[C@H](C)[C@@H](CN(C)Cc2ccc(Cl)c(Cl)c2)Oc2ccc(NC(=O)Nc3ccccc3)cc2C1=O	1.0	-24	15	-0.18
C[C@H]1CN([C@@H](C)CO)C(=O)c2cc(NC(=O)C3CC3)ccc2O[C@@H]1CN(C)S(=O)(=O)c1ccc(F)cc1	0.9	.	-10	0.046
C[C@H]1CN([C@@H](C)CO)C(=O)Cc2cc(NC(=O)CCCN(C)C)ccc2O[C@@H]1CN(C)C(=O)Nc1ccc2c(c1)OCO2	0.9	.	-5	0.041
Cc1noc(C)c1NC(=O)Nc1ccc2c(c1)C(=O)N([C@H](C)CO)C[C@@H](C)[C@H](CN(C)C(=O)Nc1ccc(C(F)(F)F)cc1)O2	.	42	1	-0.033
CSc1cccc(NC(=O)C(C)NS(=O)(=O)c2ccccc2)c1 (stereo not drawn)	-0.7	.	1	.
CC(=O)Nc1ccc(NC(=O)CN(c2ccccc2Br)S(C)(=O)=O)cc1	5.4	.	-15	.
NC(=O)C1(N2CCCCC2)CCN(CC(=O)Nc2ccc(F)cc2)CC1	0.5	.	-30	.
Cc1noc(C)c1NC(=O)Nc1cccc2c1O[C@@H](CN(C)S(=O)(=O)c1cccs1)[C@H](C)CN([C@@H](C)CO)C2=O	.	12	2	-0.66
C[C@@H]1CN([C@H](C)CO)C(=O)c2cc(NC(=O)Cn3cnnn3)ccc2O[C@@H]1CN(C)Cc1ccc(C(=O)Nc2ccccc2N)cc1	0.0	.	5	0.22
C[C@@H]1CN([C@@H](C)CO)C(=O)c2cccc(NS(=O)(=O)c3ccc(Cl)cc3)c2O[C@H]1CN(C)Cc1ccc(Oc2ccccc2)cc1	-0.5	0	-3	0.26
C[C@@H]1CN([C@@H](C)CO)C(=O)c2cc(NS(=O)(=O)c3ccccc3)ccc2O[C@@H]1CN(C)Cc1ccncc1	-2.8	.	-1	-1.1
Cc1ccc(S(=O)(=O)N(C)CC(=O)Nc2cc(Cl)ccc2Oc2ccccc2)cc1	0.6	.	-13	.
C[C@H](CO)N1C[C@H](C)[C@@H](CN(C)Cc2ccc(-c3ccccc3)cc2)Oc2c(NC(=O)Nc3ccccc3)cccc2C1=O	1.5	0	17	0.063
COc1ccc(NC(=O)Nc2ccc3c(c2)CC(=O)N([C@H](C)CO)C[C@@H](C)[C@@H](CN(C)Cc2ccccc2)O3)cc1	0.7	10	-2	0.26
O=C(CSc1nnc(-c2ccncc2)n1-c1ccc(F)cc1)c1ccc(Cl)cc1	-3.0	.	-8	.
COC(=O)c1ccccc1NC(=O)CN(c1ccc(I)cc1)S(C)(=O)=O	1.2	.	-13	.
Cc1ccc(S(=O)(=O)Nc2ccc3c(c2)C(=O)N([C@H](C)CO)C[C@H](C)[C@H](CN(C)Cc2ccc(C(F)(F)F)cc2)O3)cc1	0.3	16	34	0.12
C/C=C(/C)C(=O)OC1C(OC(C)=O)c2c(ccc3ccc(=O)oc23)OC1(C)C (stereo not drawn)	0.8	43	0	-0.13
Cc1noc(C)c1NC(=O)N(C)C[C@@H]1Oc2ccc(NC(=O)NC(C)C)cc2C(=O)N([C@@H](C)CO)C[C@H]1C	.	-30	3	-0.22
Cc1noc(C)c1S(=O)(=O)Nc1ccc2c(c1)C(=O)N([C@H](C)CO)C[C@H](C)[C@@H](CN(C)S(=O)(=O)c1ccc(Cl)cc1)O2	0.7	.	10	-0.28
C[C@@H]1CN([C@H](C)CO)C(=O)Cc2cc(NC(=O)CCC(F)(F)F)ccc2O[C@H]1CN(C)Cc1ccccc1	1.0	-49	-4	-0.088
C[C@@H]1CN([C@H](C)CO)C(=O)Cc2cc(NS(=O)(=O)c3cccs3)ccc2O[C@@H]1CN(C)C(=O)Nc1ccc2c(c1)OCO2	0.2	-3	-3	0.084
CCn1c(SCC(N)=O)nnc1-c1ccncc1	2.1	.	-6	.
CCOC(=O)c1cc(C#N)c(Oc2ccc(C)cc2)nc1C(F)(F)F	-2.2	16	18	0.3
C[C@H](CO)N1C[C@H](C)[C@@H](CN(C)Cc2ccc3c(c2)OCO3)Oc2ccc(NC(=O)CCCCCC(=O)Nc3ccccc3N)cc2C1=O	1.2	.	-4	0.069
CC(C)NC(=O)N(C)C[C@@H]1Oc2ccc(NS(C)(=O)=O)cc2C(=O)N([C@H](C)CO)C[C@H]1C	0.4	.	3	0.19
COc1ccc(S(=O)(=O)Nc2cccc3c2O[C@H](CN(C)Cc2ccccc2)[C@@H](C)CN([C@@H](C)CO)C3=O)cc1	-0.2	1	-1	0.087
C=C(CO)C(=O)O[C@H]1C[C@H]2C(=C)C[C@H](OC(=O)C(=C)CO)[C@H]3C(=C)C(=O)O[C@@H]3[C@H]2C1=C	3.1	-45	56	0.45
Cc1ccc(S(=O)(=O)c2ccc(-c3ccccc3)cc2)cc1	2.5	.	2	-0.26
C[C@H]1CN([C@@H](C)CO)C(=O)Cc2cc(NC(=O)CCN3CCOCC3)ccc2O[C@@H]1CN(C)Cc1ccc(-c2ccccc2)cc1	-0.2	65*	-12	0.39
C[C@H](CO)N1C[C@H](C)[C@H](CN(C)S(=O)(=O)c2ccccc2)Oc2ccc(NC(=O)Nc3cccc4ccccc34)cc2CC1=O	.	.	-1	-0.066
C[C@@H]1CN([C@@H](C)CO)C(=O)c2cc(NC(=O)C3CC3)ccc2O[C@@H]1CN(C)S(=O)(=O)c1cn(C)cn1	1.8	-14	-5	0.13
Cc1ccc(S(=O)(=O)N(C)C[C@H]2Oc3ccc(NC(=O)c4ccncc4)cc3CC(=O)N([C@H](C)CO)C[C@H]2C)cc1	-0.4	-27	-2	0.025
COC(=O)COc1ccc(NC(=O)C2CCCO2)cc1 (stereo not drawn)	2.3	.	-11	.
CN(C)CCCN1C(=O)C(=O)C(C(=O)c2ccco2)C1c1ccc([N+](=O)[O-])cc1 (stereo not drawn)	3.3	.	-9	.
C[C@@H]1CN([C@@H](C)CO)C(=O)c2cc(NS(C)(=O)=O)ccc2O[C@@H]1CN(C)C(=O)Nc1ccccc1	0.7	-17	-8	0.27
Cc1ccc2oc(-c3cccc(NC(=O)COc4ccc(Br)cc4)c3C)nc2c1	-2.4	.	77	.
O=C1c2ccccc2C(=O)N1CCSc1nnnn1-c1ccccc1	1.2	.	-7	.
O=C(CSc1nnnn1-c1ccccc1)c1cc2ccccc2oc1=O	-0.2	.	-74	.
O=c1[nH]c2ccccc2c(=O)n1CCCO	-1.5	.	-16	.
C[C@@H]1CN([C@@H](C)CO)C(=O)c2cccc(NS(=O)(=O)c3cn(C)cn3)c2O[C@@H]1CN(C)Cc1ccc(Cl)c(Cl)c1	1.0	-82	-3	-0.073
Nc1ccc2nn(-c3ccccc3)nc2c1	0.2	.	-17	-0.75
C[C@H]1[C@H](C)CC[C@]2(C(=O)O)CC[C@]3(C)C(=CCC4[C@@]5(C)C[C@@H](O)[C@H](O)[C@@](C)(CO)C5[C@H](O)C[C@]43C)[C@H]12 (stereo partly drawn)	.	-3	-7	0.021
COc1ccc(NC(=O)N(C)C[C@H]2Oc3ccc(NC(=O)Nc4ccccc4)cc3C(=O)N([C@@H](C)CO)C[C@H]2C)cc1	-1.7	-42	-26	0.28
COc1ccc(S(=O)(=O)N(C)C[C@H]2Oc3ccc(NS(=O)(=O)c4ccc(Cl)cc4)cc3CC(=O)N([C@@H](C)CO)C[C@H]2C)cc1	-1.0	-33	0	-0.28

Single records (already shown). Screens in order: PD-1 reversal, Shh pathway inh, MITF inhib, YB-1 expression
Entry for `C[C@@H]1CN([C@@H](C)CO)C(=O)c2cc(NC(=O)C3CC3)ccc2O[C@@H]1CN(C)S(=O)(=O)c1cn(C)cn1` : 1.8, -14, -5, 0.13
Entry for `O=C1c2ccccc2C(=O)N1CCSc1nnnn1-c1ccccc1` : 1.2, ., -7, .
Entry for `C[C@@H]1CN([C@H](C)CO)C(=O)Cc2cc(NS(=O)(=O)c3cccs3)ccc2O[C@@H]1CN(C)C(=O)Nc1ccc2c(c1)OCO2` : 0.2, -3, -3, 0.084
Entry for `NC(=O)C1(N2CCCCC2)CCN(CC(=O)Nc2ccc(F)cc2)CC1` : 0.5, ., -30, .
Entry for `C[C@@H]1CN([C@@H](C)CO)C(=O)c2cc(NS(=O)(=O)c3ccccc3)ccc2O[C@@H]1CN(C)Cc1ccncc1` : -2.8, ., -1, -1.1

Next part.
SMILES	PD-1 reversal	Shh pathway inh	MITF inhib	YB-1 expression
Cc1cc(-c2cc(C)[nH]n2)n[nH]1	0.2	.	-13	0.9
CC(Oc1ccc(Cl)cc1Cl)C(=O)Nc1cc(-c2nc3ccccc3o2)ccc1Cl (stereo not drawn)	1.7	.	-12	.
COc1cc(C)c(C(=O)Oc2cc(C)c(C(=O)Oc3cc(C)c(C(=O)NC(C)C(=O)O)c(O)c3)c(O[C@@H]3O[C@H](CO)[C@@H](O)[C@H](O)[C@H]3OC(C)=O)c2)c(O)c1 (stereo partly drawn)	.	34	.	0.33
O=C(O)CCCC(=O)Nc1ccc(Br)cc1C(=O)O	0.8	.	18	.
C[C@H](CO)N1C[C@H](C)[C@@H](CN(C)C(=O)Nc2ccccc2)Oc2c(cccc2N(C)C)C1=O	0.8	6	-2	-0.42
Cc1ccc(S(=O)(=O)N(CC(=O)O)c2cc(Cl)ccc2C)cc1	0.0	.	-20	.
COc1cc(C[C@H]2C(=O)OC[C@@H]2Cc2ccc(O[C@@H]3O[C@H](CO)[C@@H](O)[C@H](O)[C@H]3O)c(OC)c2)ccc1O	1.9	2	14	0.067
CNC[C@H]1Oc2c(N)cccc2C(=O)N([C@@H](C)CO)C[C@@H]1C	0.6	-30	-1	0.073
C[C@H](CO)N1C[C@H](C)[C@H](CN(C)C)Oc2ccc(NC(=O)Cc3cn(C)c4ccccc34)cc2CC1=O	.	39	0	-0.058
C[C@@H]1CCCCO[C@@H](CN(C)S(C)(=O)=O)[C@@H](C)CN([C@H](C)CO)C(=O)c2cc(NC(=O)Nc3ccccc3)ccc2O1	-0.5	-13	-6	0.53
CC(C)NC(=O)Nc1ccc2c(c1)CC(=O)N([C@@H](C)CO)C[C@@H](C)[C@@H](CN(C)Cc1ccc(-c3ccccc3)cc1)O2	-0.2	19	22	0.17
Cc1ccc(S(=O)(=O)Nc2cccc3c2O[C@@H](CN(C)C(=O)NC(C)C)[C@H](C)CN([C@@H](C)CO)C3=O)cc1	1.2	-6	-9	-0.47
CC(C)NC(=O)Nc1ccc2c(c1)CC(=O)N([C@@H](C)CO)C[C@H](C)[C@@H](CN(C)S(C)(=O)=O)O2	0.3	-46	2	-1.2
Cc1noc(C)c1NC(=O)Nc1cccc2c1O[C@H](CN(C)Cc1ccc(Oc3ccccc3)cc1)[C@@H](C)CN([C@H](C)CO)C2=O	.	?	7	-0.025
C[C@@H]1CN([C@H](C)CO)C(=O)c2cccc(NC(=O)C3CCCCC3)c2O[C@@H]1CN(C)S(=O)(=O)c1cccs1	1.3	-33	-3	0.066
CC/C=C/c1ccc(C)cc1CCCCCC(=O)O	2.9	0	7	-0.079
C[C@@H]1CN([C@@H](C)CO)C(=O)c2cc(NC(=O)NC3CCCCC3)ccc2O[C@@H]1CN(C)Cc1ccc(C(F)(F)F)cc1	-0.8	-13	-2	-0.51
CCN(CC(=O)Nc1ccc(F)cc1F)S(=O)(=O)c1ccc2ccccc2c1	1.1	.	13	.
N#Cc1c(NC(=O)Cn2cnc3sc(-c4ccccc4)cc3c2=O)sc2c1CCC2	0.0	.	12	.
C=C1C(=O)O[C@@H]2C3C(=C(C)[C@@H](O)[C@@H](OC(=O)/C(=C/C)COC(C)=O)[C@@H]12)C(=O)[C@H]1O[C@@]31C (stereo partly drawn)	-8.9	72*	58	-0.0088
COc1ccc(S(=O)(=O)Nc2ccc3c(c2)CC(=O)N([C@H](C)CO)C[C@@H](C)[C@@H](CN(C)Cc2ccc(Oc4ccccc4)cc2)O3)cc1	-2.5	19	17	-0.093
C[C@H]1CN([C@@H](C)CO)C(=O)c2cccc(NS(=O)(=O)c3ccc(F)cc3)c2O[C@@H]1CN(C)CC1CC1	1.7	-17	-10	-0.046
COc1ccc(Cl)cc1NC(=O)NCc1cccnc1	-1.3	.	-11	.
Cc1nnc(SCC(=O)N2N=CCC2c2ccccc2)s1 (stereo not drawn)	2.6	.	-21	.
Cc1ccc(S(=O)(=O)N(C)C[C@H]2Oc3c(NC(=O)CCCCCC(=O)Nc4ccccc4N)cccc3C(=O)N([C@H](C)CO)C[C@H]2C)cc1	-1.5	.	-2	0.13
Cn1c(SCCCN2C(=O)c3cccc4cccc(c34)C2=O)nnc1-c1cccs1	-0.1	.	16	.
C[C@@H]1CN([C@@H](C)CO)C(=O)c2cc(NC(=O)CCN3CCOCC3)ccc2O[C@@H]1CN(C)S(=O)(=O)c1cn(C)cn1	0.4	.	0	0.41
CS(=O)(=O)N(CC(=O)Nc1cccc([N+](=O)[O-])c1)C1CCCCC1	1.0	.	-8	.
O=C(Nc1ccccc1)C(=S)N1CCOCC1	-0.3	-2	-4	0.053
